Source: PubChem BioAssay
Hsc70 ATP site: Hsc70 inhibitors, probe displacement, primary screen, biochemical, fluorescence polarization (AID 568); 83,000 tested, under 10 active; displacement, % at 20 µM, or IC50 in µM where a hit was titrated; Hsc70 fluorescence polarization, probe displacement; higher % means a stronger effect; strong numbers were not always called active;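 active = displacement above 50% without optical interference and an IC50 on retest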;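 note: ATPase domain with a fluorescein-tagged ATP probe; 0% = vehicle and 100% = excess ADP; read after one hour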
MT1-MMP reporter: MT1-MMP gene expression reporter suppression – cell-based, luciferase reporter, luminescence (AID 618); calls from a first round at 10 µM; hits with a dose series show EC50 in µM; MT1-MMP promoter luciferase reporter cells, luminescence; 87,000 tested, 0.62% active;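 active = over half of the reporter light lost at 10 µM or EC50 under 50 µM; inactive = the rest and hits that failed the dose series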;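 note: actives suppress MT1-MMP promoter-driven transcription so potencies describe inhibitors; HT1080 fibrosarcoma cells; overnight exposure; toxic or luciferase-blocking compounds were not removed from the actives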
WNV NS2B-NS3 inh: blocks West Nile virus NS2B-NS3 protease activity. WNV NS2B-NS3 protease, fluorogenic substrate Ex360/Em465; active compounds read low. P06935. 65,000 tested, 0.18% active. z-score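 (tested at a level between 10 and 100 µM)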. AID 577;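 active = z-score at -3 or under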;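 note: score is relative to mean and spread of the compound wells of a plate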
Target sequence (P06935 1371-1501 limits assumed): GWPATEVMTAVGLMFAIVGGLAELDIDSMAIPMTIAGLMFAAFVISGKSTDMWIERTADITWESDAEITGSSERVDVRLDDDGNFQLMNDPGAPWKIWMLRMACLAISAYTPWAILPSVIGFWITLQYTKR
Target sequence (P06935 1502-1679 limits assumed): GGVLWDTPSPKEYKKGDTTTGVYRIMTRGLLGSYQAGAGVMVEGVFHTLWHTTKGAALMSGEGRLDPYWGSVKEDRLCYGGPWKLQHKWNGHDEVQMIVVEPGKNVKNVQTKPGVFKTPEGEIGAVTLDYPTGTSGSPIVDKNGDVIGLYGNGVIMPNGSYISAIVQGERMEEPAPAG
* hit, by the source's call; i = inactive; / = not tested or not shown.

Each structure is followed by: Hsc70 ATP site, MT1-MMP reporter, WNV NS2B-NS3 inh
Cc1cccc(/C=N/NC(=O)C(C)Nc2cccc3ccccc23)n1 (stereo unspecified)
    0.8%, i, /
C=CCN1C(=O)CSc2ccc(C(=O)OCC)cc21
    -0.5%, i, -0.59
Cn1c(NCc2ccco2)nc2c1c(=O)n(Cc1ccc(Cl)c(Cl)c1)c(=O)n2C
    11%, i, 0.47
CC(OC(=O)C1CC=CCC1C(N)=O)C(Cl)=C(Cl)Cl (stereo unspecified)
    -1.3%, i, -0.1
CS(=O)(=O)N1CCN(c2ccccc2NC(=O)Cc2ccccc2)CC1
    2.3%, i, -1.2
CCC(C)[C@H](NC(=O)NCc1ccccc1)C(=O)O (stereo partly specified)
    -3.1%, i, 2.3
CCOC(=O)Cc1csc(SCC(=O)/C(C#N)=C(\C)N)n1
    -2.8%, i, -0.94
CCOC(=O)c1ccccc1NC(=O)/C=C/c1cc(OC)c(OC)c(OC)c1
    3.5%, i, /
CCCN(CCC)C(=O)c1ccc2c(c1)OCO2
    0.1%, i, /
Clc1ccc(OCc2nc(-c3ccncc3)no2)cc1
    0.9%, i, /
O=C(c1cc(Br)c(Br)s1)N1CCN(C/C=C/c2ccccc2)CC1
    1.2%, i, /
O=C(C1=C(O)C(=O)N(CCCN2CCOCC2)C1c1ccccn1)c1cc2ccccc2o1 (stereo unspecified)
    8.1%, i, 0.98
CCOc1cc(-c2noc(CCCC(N)=O)n2)cc(Br)c1OC
    -4.4%, i, -1
O=C(O)C1C2C=CC3(CN(Cc4ccccn4)C(=O)C13)O2 (stereo unspecified)
    0.1%, i, -0.58
COc1ccc(OCCC(=O)NCc2ccccc2)cc1
    6.5%, i, -1.2
O=C1CC(c2ccccc2)CN1S(=O)(=O)c1ccccc1 (stereo unspecified)
    0.5%, i, -0.44
COCCNC(=O)c1c(N)n(CCCn2ccnc2)c2nc3ccccc3nc12
    10%, i, 1.6
O=C(Cn1ncc2c(=O)oc3ccccc3c21)NCCC1=CCCCC1
    6.6%, i, 0.69
O=C1CC(c2ccc(S(=O)(=O)N3CCN(c4ccccc4)CC3)cc2)CN1 (stereo unspecified)
    1.8%, i, 0.14
CC(C)COn1c(=S)[nH]c2ccccc2c1=O
    -1.2%, i, /
COc1ccc(CCN(C)CCN2C(=O)c3ccccc3C2=O)cc1OC
    -2.0%, i, -1.1
O=C(COC(=O)CSCC(=O)N1CCCCC1)Nc1ccc(Cl)cc1
    -1.9%, i, -0.37
CC(c1ccccc1)C1CC(=O)N(CC(=O)O)C1=O (stereo unspecified)
    7.4%, i, -0.37
COC(=O)c1cc(C#N)c(NCc2ccccc2)nc1C
    -1.2%, i, /
CCC(C)NC(=O)CSc1nnc(-c2cc(-c3cccs3)nc3ccccc23)o1 (stereo unspecified)
    5.2%, i, /
CCOc1ccc(-n2c(SC(C)C(=O)OC)nc3c(c2=O)SCC3)cc1 (stereo unspecified)
    7.5%, i, /
CC1CCc2sc3nc(N4CCN(CCO)CC4)n4ncnc4c3c2C1 (stereo unspecified)
    -6.4%, i, 0.8
O=C1C=C(N(CCO)CCO)C2(CCCCC2)O1
    -8.3%, i, -0.12
Cc1cc(C(=O)Nc2nc3ccc(S(C)(=O)=O)cc3s2)c(C)o1
    2.7%, i, 2.4
Cc1ccc(S(=O)(=O)n2nc(-c3ccc(Cl)cc3)nc2NCc2ccco2)cc1
    -9.7%, i, -1.1

Some entries already given, showing only MT1-MMP reporter:
SMILES | MT1-MMP reporter
CC(c1ccccc1)C1CC(=O)N(CC(=O)O)C1=O (stereo unspecified) | i
Cc1ccc(S(=O)(=O)n2nc(-c3ccc(Cl)cc3)nc2NCc2ccco2)cc1 | i
COC(=O)c1cc(C#N)c(NCc2ccccc2)nc1C | i
O=C(COC(=O)CSCC(=O)N1CCCCC1)Nc1ccc(Cl)cc1 | i

(cont.)
Each structure is followed by: Hsc70 ATP site, MT1-MMP reporter, WNV NS2B-NS3 inh
CCOC(=O)c1c(NC(=O)CSc2nnc(CNc3ccc(Cl)cc3)o2)sc(C)c1C
    1.1%, i, /
CCN(Cc1ccccc1)C(c1ccccn1)c1nnnn1C1CCCCC1 (stereo unspecified)
    -0.6%, i, /
Cn1c(=O)oc2cc(S(=O)(=O)NCCC(=O)Nc3ccc4c(c3)OCCO4)ccc21
    2.8%, i, 2.1
CN(C)S(=O)(=O)Nc1ccc(Br)cc1F
    5.0%, i, -1
COc1cc2c(O)c3c(c(-c4ccc5c(c4)OCO5)c2cc1OC)C(=O)OC3
    -7.4%, i, 0.29
Cc1ccc2c(c1)C(=O)C(=O)N2CC(=O)OC(C)C
    -0.3%, i, /
COc1cc2nc(-c3ccc(Br)o3)oc(=O)c2cc1OC
    0.2%, i, 1.8
CC1(C)CC(NC(=O)CCc2ccccc2)CC(C)(C)N1
    -3.9%, i, -0.49
COc1ccc(C)cc1NC(=O)CSc1nnnn1Cc1ccccc1
    0.4%, i, 0.00094
COc1ccc(Nc2c(C)cccc2C)cc1
    1.5%, i, /
Cc1ccc(SCc2cc(=O)[nH]c(N3CCOCC3)n2)cc1
    -8.7%, i, 0.9
c1ccc(CN2CCN(CCN3CCn4c3nc3ccccc34)CC2)cc1
    -1.0%, i, 0.68
Cc1ccc2nc(SCCC#N)nc(C)c2c1
    -2.8%, i, -0.33
Cn1c(=O)n(CC(=O)O)c(=O)c2c1nc1n2CCS1
    1.2%, i, 0.01
CCCCCn1c(SCCCC)nc2c1c(=O)[nH]c(=O)n2C
    -0.1%, i, 0.95
COc1c(C)cccc1C(=O)Nc1ccc(CN2CCOCC2)cc1
    -5.3%, i, -0.3
C=CCn1c(SCn2nnc3ccccc3c2=O)nnc1-c1ccc(Br)cc1
    2.0%, i, -0.19
COc1cccc(C2C=C(c3cccs3)Nc3ncnn32)c1OC (stereo unspecified)
    2.9%, i, 0.21
CCCC(=O)c1ccc(N2CCN(C(=O)c3ccccc3)CC2)c(F)c1
    -3.7%, i, -0.78
CCOC(=O)c1c(C)oc2ccc(O)c(CN(C)C)c12
    -6.0%, i, 0.04
CC1CCCCN1C(=O)CSc1nnc(-c2ccco2)n1CC1CCCO1 (stereo unspecified)
    -6.9%, i, -0.49
CS(=O)(=O)N1CCN(c2ccccc2NC(=O)c2ccc(Cl)cc2)CC1
    3.7%, i, -0.58
Cc1cc(C)nc(SCc2nnc(SCC(=O)Nc3ccccc3C)n2Cc2ccco2)n1
    -7.2%, i, -0.57
CC(O)CNC(=O)c1ccc(-c2nn(C)c(=O)c3ccccc23)cc1 (stereo unspecified)
    0.7%, i, /
O=C(CCS(=O)(=O)c1cccc2nsnc12)N1CCN(C(=O)c2ccco2)CC1
    3.2%, i, 0.75
O=C(O)CCC(=O)Nc1ccccc1C(=O)NCc1ccco1
    3.1%, i, /
Cc1ccccc1C(=O)N1CCC(C(=O)Nc2ccc(S(=O)(=O)N3CCCC3)cc2)CC1
    7.2%, i, 1.1
Cc1cc2cc3c(cc2nc1SCC(=O)N1CCN(C(=O)c2ccco2)CC1)OCO3
    -1.2%, i, -0.52
CCN(CC)CCNC(=O)C(C)c1nn(CC)c(=O)c2ccccc12 (stereo unspecified)
    1.7%, i, /
CC1(C)CC(=O)C(/C=N/n2cnc3ccccc3c2=O)=C(O)C1
    2.9%, i, -0.43
COc1ccc(S(=O)(=O)N(C)C2CCS(=O)(=O)C2)cc1OC (stereo unspecified)
    7.4%, i, -0.72
Cc1cccc(OCC(O)Cn2c(NCc3cccnc3)nc3c2c(=O)[nH]c(=O)n3C)c1 (stereo unspecified)
    3.0%, i, 1.4
Cc1cnc(NC(=O)CCCc2nc3ccccc3s2)s1
    1.6%, i, /
Cc1ccc(S(=O)(=O)NNc2nc3ccccc3nc2C(F)(F)F)cc1
    -2.0%, i, /
COCC(C)n1c(C)cc(C(=O)COC(=O)c2ccc3ncsc3c2)c1C (stereo unspecified)
    -1.9%, i, 1.3
COc1ccc(C(=O)Nc2cccnc2)cc1OC
    -3.5%, i, /
CS(=O)(=O)N(CC(=O)NCc1ccccc1)Cc1ccc(Cl)cc1
    2.2%, i, /
O=C(O)c1cn[nH]c1-n1cnnn1
    7.9%, i, -1.5
COc1ccc(NC(=O)c2ccc(OC)cc2)cc1
    -0.8%, i, 0.07
COc1ccc(S(=O)(=O)N2CCC(C(=O)N3CCc4ccccc4C3)CC2)cc1OC
    1.1%, i, -0.57
Cc1ccc(C(=O)NCc2nnc(SCC(=O)Nc3sc4c(c3C#N)CCCC4)n2C)cc1
    -6.2%, i, 1.3
O=C(Oc1cccc(-n2cnnn2)c1)c1ccco1
    4.1%, i, /
Cc1cc(NC(=O)c2noc3c2CCc2ccccc2-3)n(-c2ccccc2)n1
    4.5%, i, -1.1
CC(OC(=O)c1cccs1)C(=O)NCc1ccccc1 (stereo unspecified)
    -2.9%, i, -0.91
Cc1ccc(C2CC(C(F)F)n3ncc(C(=O)Nc4c(C)nn(Cc5c(F)cccc5Cl)c4C)c3N2)cc1 (stereo unspecified)
    2.7%, i, /

Continuation.
SMILES | Hsc70 ATP site | MT1-MMP reporter | WNV NS2B-NS3 inh
Cc1ccc2[nH]c(=O)c3cc(C(=O)N(C)Cc4ccco4)sc3c2c1 | -0.3% | i | 0.12
O=C(CCn1cccc1)N1CCc2ccccc21 | -0.3% | i | 0.22
CC1CCN(S(=O)(=O)c2ccc(S(=O)(=O)NCc3ccco3)cc2)CC1 | 0.2% | i | /
CCC(C)OC(=O)C1C(c2ccccc2)C(C(=O)O)C1c1ccccc1 (stereo unspecified) | 1.2% | i | /
Cc1ccc(C(C)C)c(OCCN)c1 | 5.8% | i | 0.27
O=C(Nc1cccc(Cl)c1Cl)C1CCN(c2ncccn2)CC1 | -2.2% | i | 0.09
CCOC(=O)c1cc(C)n(Cc2ccccc2)c1C | -5.8% | i | -0.52
CC(C)Cc1cc(-c2ccco2)c(C#N)c(N)n1 | -8.3% | i | -0.28
CCN(CCCNc1ncnc2nc[nH]c12)c1cccc(C)c1 | -0.3% | i | 0.45
O=C(c1cccs1)N(Cc1cccc(Cl)c1)C1CCS(=O)(=O)C1 (stereo unspecified) | -0.9% | i | 0.37
CCc1nn2c(=O)cc(N3CCN(c4cc(C)nc5ccccc45)CC3)nc2s1 | 3.8% | i | 1.6
O=C1C2CC=C(Cl)CC2C(=O)N1CC1Cc2ccccc2CO1 (stereo unspecified) | 49% | i | 2.1

One compound at a time (already shown). Order of values: Hsc70 ATP site, MT1-MMP reporter, WNV NS2B-NS3 inh
`Cc1ccc2[nH]c(=O)c3cc(C(=O)N(C)Cc4ccco4)sc3c2c1` in the list: -0.3%, i, 0.12
`CC1CCN(S(=O)(=O)c2ccc(S(=O)(=O)NCc3ccco3)cc2)CC1` in the list: 0.2%, i, /
`CC(C)Cc1cc(-c2ccco2)c(C#N)c(N)n1` in the list: -8.3%, i, -0.28
`O=C(CCn1cccc1)N1CCc2ccccc21` in the list: -0.3%, i, 0.22
`CCOC(=O)c1cc(C)n(Cc2ccccc2)c1C` in the list: -5.8%, i, -0.52

(further entries)
SMILES | Hsc70 ATP site | MT1-MMP reporter | WNV NS2B-NS3 inh
Cc1ccc(-n2c(SCC(=O)NCc3ccco3)nc3nc4c(cc3c2=O)COC(C)(C)C4)cc1 | 0.8% | i | 0.7
CCOC(=O)/C=C1\NC(C)(C)Cc2cc(OC)c(O)cc21 | -2.7% | i | -0.8
O=C(CN1C(=O)C2CC=C(Cl)CC2C1=O)N1CCOCC1 (stereo unspecified) | 2.0% | i | 2
CCC(=O)Nc1ccc(Cl)c(NC(=O)c2ccc(Br)o2)c1 | -1.2% | i | -0.0021
Nc1ccc(C(=O)c2ccccc2C(=O)O)cc1Cl | 0.9% | i | -0.02
O=C(Nc1ccc2c(c1)oc1ccccc12)N1CCOCC1 | -1.2% | i | -1.2
CCCCCNC(=O)C1CC=CCC1C(=O)O (stereo unspecified) | 4.5% | i | /
COC(=O)[C@H](CC(C)C)NC(=O)Nc1ccc2c(c1)OCCO2 | -0.1% | i | -1.4
CCN(CCO)C(=O)C(c1ccccc1)c1ccccc1 | 1.6% | i | /
O=C(CCSc1nc(-c2ccco2)cc(C(F)(F)F)n1)N1CCCc2ccccc21 | 0.2% | i | -1.3
Cc1cc(C)nc(N2CCN(c3nc(C)cc(C)n3)CC2)n1 | -0.7% | i | -0.34
CC1CCC(C(C)C)C(OC(=O)CSc2nc(N)cc(=O)[nH]2)C1 (stereo unspecified) | -9.9% | i | /
O=C(c1nn2c(C(F)(F)F)cc(-c3ccccc3)nc2c1Cl)N1CCOCC1 | -6.6% | i | -0.68
CCN1C(=O)c2cccc3c(S(=O)(=O)Nc4c(C)n(C)n(-c5ccccc5)c4=O)ccc1c23 | 2.4% | i | -0.95
COc1ccc(NC(=O)CSc2nnnn2-c2ccc(OC)cc2)cc1 | -0.5% | i | /
CCn1c(SCC(=O)N2CCc3ccccc32)nc2c(c1=O)SC(C)C2 (stereo unspecified) | -2.2% | i | 1.6
